Screening data (PubChem BioAssay)
PrP 5UTR inh: inhibition of PrP 5' UTR reporter expression; 340,000 compounds, 0.35% hits; cell-based PrP 5' UTR mRNA reporter, plate reader; inhibition, % (concentration not given with the values);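 active = every replicate at 50% or more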;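 note: 0 = median of the neutral control wells; tested in H4 reporter cells; numbers are from one replicate; inactives centre near -14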
Sa RN4220 lethal: growth inhibition of S. aureus RN4220, primary screen, OD600 | 16 h | inhibition, % (test concentration not listed) | 330,000 compounds, 0.33% hits | AID 1259311, 2017;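 active = z-score of -3 or lower and OD600 up to 0.18 on both plates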;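 note: plate controls were untreated cells for no effect and reference antibiotic for full effect; stock transfer was 100 nL into about 80 µL; one replicate is shown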
ugtP null kill: growth inhibition of ugtP-null S. aureus, primary screen, RN4220 ugtP deletion, OD600. 330,000 compounds, 0.54% hits. AID 1259309, 2017. growth inhibition, % (test concentration not listed). 16 h; some inactives read as strong as hits;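 active = z-score under -3 and OD600 up to 0.15 on both plates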;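 note: plate controls were untreated wells for no effect and antibiotic for full effect; wells of about 80 µL received 100 nL stock; the first replicate is given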
BJeLR lethal: MLPCN primary cell-based screen for lethality selective to Ras in HRASV12 cells | BJeLR (HRASV12) viability, CellTiter-Glo ATP luminescence, 48 h; reference of the scale not given here | inhibition, % (test concentration not listed) | 300,000 compounds, 0.17% hits;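 active = replicate mean above 50%; inconclusive = above 50% but judged a plate artefact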;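 note: 50 nL library stock added to about 25 µL; numbers are from one replicate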
Mtb hypoxia inh: PubChem AID 1159583 | fluorescence inhibition, % (concentration not given with the values) | M. tuberculosis hypoxia-regulated fluorescent reporter, fluorescence | 300,000 compounds, 0.1% hits;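 active = 35 to 45% if threefold the growth effect, above 45% if 1.5-fold the growth effect; inactive = the rest, general growth blockers included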;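 note: wells of about 50 µL received 100 nL stock; 0% = vehicle wells and 100% = reference inhibitor wells; whole bacteria with a GFP reporter of the hypoxia response; strong numbers were not always called active; many hits fall short of the cut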
Autofluor counter: flagged as autofluorescent in microsphere protease counterscreen; compound autofluorescence counterscreen, microsphere flow cytometry; active compounds read high; fluorescence intensity (test concentration not listed); 360,000 compounds, 3.1% hits;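 active = at least 3 SD above the mean of all compounds, about 16000 in these data; inconclusive = too few beads counted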;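 note: 100 nL of 1 mM stock went into each well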
Mtb hypoxia inh growth: second read-out of Mtb hypoxia inh, no call of its own (marks repeat the call); growth inhibition, %; measured here: M. tuberculosis growth (absorbance);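 0% = vehicle and 100% = reference antibiotic; read after six days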
The depositor's hits bear a star; ? = inconclusive; nt = not tested or not shown.

SMILES	PrP 5UTR inh	Sa RN4220 lethal	ugtP null kill	BJeLR lethal	Mtb hypoxia inh	Mtb hypoxia inh growth	Autofluor counter
Cc1csc(=O)n1CC(=O)OCc1cccc2ccccc12	-32	10	-2	-4	15	12	9232
CC(C)c1cc(CNC(=O)CC2C(=O)NCCN2CC2CCCCC2)on1 (stereo not drawn)	-11	8.0	0	-1	8	7	4643
O=C(c1ccccc1)N1CCN(S(=O)(=O)c2cccc(NS(=O)(=O)c3ccccc3)c2)CC1	-35	3.2	1	8	-11	-2	4826
Cc1ccc(S(=O)(=O)N2CCC(NC(=O)c3cccnc3)CC2)cc1Cl	-18	2.8	4	-8	16	12	3527
O=C1/C(=C/c2cccs2)CCC1C1CCCC1 (stereo not drawn)	-80	9.3	8	10	nt	nt	nt
COc1ccc(C2N(C(C)=O)CCN2S(=O)(=O)c2ccc(C)cc2)cc1 (stereo not drawn)	-31	1.1	10	15	9	2	5734
COc1ccccc1NC(=O)C1=C(C)N(c2ccccc2)C(=S)NC1c1cccc(C(F)(F)F)c1 (stereo not drawn)	-15	-2.1	-30	-4	0	0	10211
CCCC/S(CC1CC1(Cl)Cl)=N\S(=O)(=O)c1ccc(C)cc1 (stereo not drawn)	-9	0.2	-6	0	-6	15	11445
CCc1ccc(-c2cc(C(=O)N/N=C/c3ccco3)[nH]n2)cc1	-25	nt	nt	-1	nt	nt	4253
COCCN1C(=O)NC(c2cccc(F)c2)C(C(=O)OC)=C1C (stereo not drawn)	nt	5.1	2	nt	19	10	nt
CCSc1nc(N2CCCCC2)c2c(c1C#N)CCCC2	-2	0.5	-31	2	2	4	3683
Cc1ccc(N2CC(C(=O)NCCS(=O)(=O)N3CCN(c4ccccc4)CC3)CC2=O)cc1 (stereo not drawn)	-15	2.1	6	1	0	-9	5418

Looked up above.
COc1ccc(C2N(C(C)=O)CCN2S(=O)(=O)c2ccc(C)cc2)cc1 (stereo not drawn) in BJeLR lethal reads 15
CCCC/S(CC1CC1(Cl)Cl)=N\S(=O)(=O)c1ccc(C)cc1 (stereo not drawn) in Mtb hypoxia inh growth reads 15

(next part)
SMILES	PrP 5UTR inh	Sa RN4220 lethal	ugtP null kill	BJeLR lethal	Mtb hypoxia inh	Mtb hypoxia inh growth	Autofluor counter
CC(C)(C)c1cc(OC(=O)c2ccncc2)ccc1O	-6	-0.9	5	nt	nt	nt	2856
O=C(Nc1ccccc1C(F)(F)F)c1ccccn1	-21	4.3	9	0	11	9	4699
O=c1sc(C=NNc2ccccc2)c(Cl)n1Cc1ccccc1	nt	-2.2	-8	nt	-1	2	nt
Cc1ccc(C(=O)NCCc2nnc3ccc(SCC(=O)Nc4ccc(C)cc4C)nn23)cc1	-4	2.2	3	-8	-11	3	11282
O=C(CCCSc1nc2ccccc2s1)NCc1ccc2c(c1)OCO2	-31	-7.1	-4	-2	9	-2	2462
O=C(CCCc1ccccn1)c1cccc2ccccc12	-50	7.9	8	nt	8	2	2952
Cc1ccc(NC(=O)C2CCCN(S(=O)(=O)c3c(C)noc3C)C2)cc1F (stereo not drawn)	-6	-4.4	-10	-2	nt	nt	2923
O=C(N/N=C/c1cccc(O)c1)c1ccc2c(c1)OCCO2	-12	nt	nt	1	nt	nt	4457
Cc1ccc(C)n1-c1nnc(N2CCC(C(=O)NCCCN3CC(C)CC(C)C3)CC2)s1 (stereo not drawn)	-5	-1.2	5	-4	1	4	nt
CC(C)(C)c1ccc(C(=O)NC(=O)COC(=O)CCS(=O)(=O)c2ccccc2)cc1	-18	4.1	7	nt	4	3	?
Cc1csc(N2CCCC2c2nc3cc(Cl)c(N4CCCCC4)cc3n2CCOCCO)n1 (stereo not drawn)	-17	7.2	-3	-2	8	9	3029
COc1cc(/C=N/NC(=O)c2ccc(CSc3nncn3C)cc2)ccc1OCC(=O)N1CC(C)OC(C)C1 (stereo not drawn)	18	nt	nt	-1	nt	nt	3584
CC(C(=O)NC1C=CS(=O)(=O)C1)N1C(=O)/C(=C/c2ccc(Cl)cc2)SC1=S (stereo not drawn)	-4	4.3	5	2	8	5	6066
CCN1C(=O)c2cccc3c(NC(=O)c4ccc5c(c4)OCCO5)ccc1c23	-8	2.3	1	-10	2	-4	4221
Cc1ccc(S(=O)(=O)N2CCN(S(C)(=O)=O)CC2)cc1	9	2.9	3	-9	-8	-4	15892
COc1ccc(OC)c(C=NNC(=O)c2cnccn2)c1	nt	4.4	9	nt	4	12	nt
COc1ccc(CCNC(=O)Cn2c(=O)n(CC3CCCO3)c(=O)c3cc(OC)c(OC)cc32)cc1OC (stereo not drawn)	-32	0.5	9	-3	2	-1	nt
O=C(O)C(Oc1ccc2ccccc2c1)c1ccccc1 (stereo not drawn)	-5	4.8	17	13	-2	4	3826
COc1ccccc1Cn1cnc2cccnc21	-26	5.8	7	-8	nt	nt	2327
COC(=O)c1cccc(C(=O)Oc2cccc(Br)c2)n1	-48	3.2	9	-12	7	11	4387
CC1(C)CC(=O)c2cnc(N3CCc4ccccc43)nc2C1	-87	8.0	-1	-3	4	-1	nt
CC1(C)CC(=O)C2=C(C1)Nc1ccccc1NC2c1ccc(F)c(F)c1 (stereo not drawn)	-1	1.4	7	-13	-5	2	3220
CCCOc1ccc(N2CC(C(=O)Nc3ncccc3C)CC2=O)cc1 (stereo not drawn)	7	3.1	2	-1	nt	nt	4427
COc1ccccc1CNC(=O)CC(C)C	-21	7.1	4	0	9	-1	4030
CSc1ncccc1C(=O)OCC(=O)N1CCOCC1	-13	0.4	1	-1	9	2	6791
CC(C)N(C(=O)CSc1nnc(NC2CC2)s1)c1ccccc1	-25	0.0	4	nt	6	12	3624
COc1ccc(CC(=O)Nc2ccc(C(=O)O)cc2NC(=O)Cc2ccc(OC)cc2)cc1	-6	-0.7	3	1	13	11	4179
COc1ccccc1CNC(=O)CSc1nc(=O)n(Cc2ccncc2)c2c1CCC2	11	1.6	7	4	-6	-2	4662
O=[N+]([O-])c1ccc(N/N=C2\CC3CC=CC23)cc1 (stereo not drawn)	-35	nt	nt	0	nt	nt	4145
COc1ccc(C=NNC(=S)NC2CCS(=O)(=O)C2)cc1 (stereo not drawn)	nt	3.8	3	nt	0	5	nt
CCCCC1CCC(C(=O)Nc2ccc(S(=O)(=O)Nc3nccs3)cc2)CC1 (stereo not drawn)	-13	0.7	26	18	16	22	24211*
Cc1ccn2c(C(=O)N/N=C\c3cccs3)c(C)nc2c1	-12	nt	nt	6	nt	nt	21815*
N#Cc1ccc(OCC(=O)OCC(=O)Nc2ccc(N3CCOCC3)cc2)cc1	-25	-0.6	12	-5	4	7	5754
CC(=O)N1CCCc2ccc(NS(=O)(=O)c3ccc(C)cc3)cc21	-1	2.8	2	-1	4	2	nt
COc1ccc(OCC(=O)NN2Cc3ccccc3C2=N)cc1	-8	1.5	8	-1	12	6	2389
S=C(Nc1ccc(Cl)cc1)N(CCCN1CCOCC1)Cc1ccco1	-5	-0.7	-5	5	-2	12	7557

14 of these compounds, set out differently.
Values in the order – PrP 5UTR inh | Sa RN4220 lethal | ugtP null kill | BJeLR lethal | Mtb hypoxia inh | Mtb hypoxia inh growth | Autofluor counter
COC(=O)c1cccc(C(=O)Oc2cccc(Br)c2)n1
→ -48 | 3.2 | 9 | -12 | 7 | 11 | 4387
CC1(C)CC(=O)c2cnc(N3CCc4ccccc43)nc2C1
→ -87 | 8.0 | -1 | -3 | 4 | -1 | nt
CC1(C)CC(=O)C2=C(C1)Nc1ccccc1NC2c1ccc(F)c(F)c1 (stereo not drawn)
→ -1 | 1.4 | 7 | -13 | -5 | 2 | 3220
CCCOc1ccc(N2CC(C(=O)Nc3ncccc3C)CC2=O)cc1 (stereo not drawn)
→ 7 | 3.1 | 2 | -1 | nt | nt | 4427
COc1ccccc1CNC(=O)CC(C)C
→ -21 | 7.1 | 4 | 0 | 9 | -1 | 4030
CSc1ncccc1C(=O)OCC(=O)N1CCOCC1
→ -13 | 0.4 | 1 | -1 | 9 | 2 | 6791
CC(C)N(C(=O)CSc1nnc(NC2CC2)s1)c1ccccc1
→ -25 | 0.0 | 4 | nt | 6 | 12 | 3624
COc1ccc(CC(=O)Nc2ccc(C(=O)O)cc2NC(=O)Cc2ccc(OC)cc2)cc1
→ -6 | -0.7 | 3 | 1 | 13 | 11 | 4179
COc1ccccc1CNC(=O)CSc1nc(=O)n(Cc2ccncc2)c2c1CCC2
→ 11 | 1.6 | 7 | 4 | -6 | -2 | 4662
O=[N+]([O-])c1ccc(N/N=C2\CC3CC=CC23)cc1 (stereo not drawn)
→ -35 | nt | nt | 0 | nt | nt | 4145
COc1ccc(C=NNC(=S)NC2CCS(=O)(=O)C2)cc1 (stereo not drawn)
→ nt | 3.8 | 3 | nt | 0 | 5 | nt
CCCCC1CCC(C(=O)Nc2ccc(S(=O)(=O)Nc3nccs3)cc2)CC1 (stereo not drawn)
→ -13 | 0.7 | 26 | 18 | 16 | 22 | 24211*
Cc1ccn2c(C(=O)N/N=C\c3cccs3)c(C)nc2c1
→ -12 | nt | nt | 6 | nt | nt | 21815*
N#Cc1ccc(OCC(=O)OCC(=O)Nc2ccc(N3CCOCC3)cc2)cc1
→ -25 | -0.6 | 12 | -5 | 4 | 7 | 5754

The listing continues:
SMILES	PrP 5UTR inh	Sa RN4220 lethal	ugtP null kill	BJeLR lethal	Mtb hypoxia inh	Mtb hypoxia inh growth	Autofluor counter
O=C(NCCN1CCCCCC1)C1CC(=O)N(CCc2ccccc2)C1 (stereo not drawn)	-19	1.4	5	12	8	11	3776
Cc1cc(C)nc(Nc2n[nH]c(Cc3ccccc3)n2)n1	nt	1.0	3	8	5	-1	nt
COc1ccc(NS(=O)(=O)c2ccc(N3CCOCC3)c(NC(=O)/C=C/C(=O)O)c2)cc1	-1	2.1	7	nt	1	1	4349
Cc1cc(C)c2c(N)c(C(=O)Nc3ccccc3Br)sc2n1	-48	3.5	9	-3	2	-4	3103
Cc1ccc(C)c(OCCn2cc(C(=O)O)c3ccccc32)c1	-22	20	-26	3	17	8	4561
CCCCc1nc(SCC(=O)Nc2ncccn2)n[nH]1	-16	4.6	5	-6	nt	nt	3703
CCc1ccc(N2C(=O)CN(CC(=O)OC)C2=S)cc1	-40	3.0	5	6	5	0	4091
COCCNC(=O)CSc1nc2cc(OC)c(OC)cc2c(=O)n1CCC1=CCCCC1	-33	0.0	1	1	9	10	nt
CC1CCN2c3nc4ccccn4c(=O)c3CC3(C(=O)N(C)C(=O)N(C)C3=O)C2C1 (stereo not drawn)	-6	1.1	1	-5	-7	5	5779
Cc1ccn2cc(CCNC(=O)COc3ccccc3)nc2c1	-20	5.4	-3	-6	11	8	3275
CCOC(=O)C1(C)C=C(Nc2ccccc2)C(=O)N1c1ccccc1 (stereo not drawn)	-18	5.0	2	-10	8	3	3889
c1ccc(-c2nnnn2-c2ccccc2)cc1	-13	3.8	0	8	-4	-1	4056
CN(C(=O)c1ccc(OC2CCN(Cc3ccccn3)CC2)cc1)C1CCCCC1	-4	2.7	3	2	-7	-1	6365
